High-throughput results (PubChem)
Ecoli growth: E. coli growth inhibition; OD600 absorbance (concentration not given with the values); hit rate 0.21% among 330,000; Escherichia coli growth, OD600, 23 h; active compounds read low;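 active = OD600 absorbance below the run mean of sample wells minus 3.6 SD, in any replicate, cut at about 0.56 in these data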;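 note: stock transfer was 300 nL into about 60 µL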
ALR inh: blocks human ALR sulfhydryl oxidase activity | P55789 | purified ALR, DTT oxidation, H2O2 HRP-luminol luminescence | inhibition, % (no concentration beside the values) | hit rate 3.8% among 290,000;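 active = mean and each replicate at 75% or more; inconclusive = only one of the two met; inactive = neither met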;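 note: stock transfer was 7.5 nL into about 7.5 µL; 0% = neutral wells and 100% = wells with inactivated enzyme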
Target sequence (P55789 whole entry, looked up): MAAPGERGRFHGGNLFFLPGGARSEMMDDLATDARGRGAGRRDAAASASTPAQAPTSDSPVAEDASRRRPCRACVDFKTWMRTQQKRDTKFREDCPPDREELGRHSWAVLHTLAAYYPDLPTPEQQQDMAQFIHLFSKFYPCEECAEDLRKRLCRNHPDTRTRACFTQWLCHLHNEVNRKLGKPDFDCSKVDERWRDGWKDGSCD
HNF4A DNA FP: change in binding of human HNF4 alpha to DNA. P41235. HNF4a-FITC DNA binding, fluorescence polarization, 1 h. activity change, % at 10 µM. hit rate 0.3% among 360,000. AID 1224865; in the data active = activity change above about 30%, passing the limit was not always enough;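 note: controls were the assay level and a saturating level of protein; the project sought stronger binding though the title names inhibitors; some compounds called inactive have numbers as strong as hits; positive values seem to mean higher polarization but the record does not say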
B2AR ag: human beta-2 adrenergic receptor agonism by FAP; P07550; response, % (concentration not given with the values); hit rate 0.43% among 340,000; Am2.2-beta2AR cells, FAP receptor internalization, flow cytometry; reference of the scale not given here;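 active = response above a set limit, near 3 SD of response in nonfluorescent compounds, cut at about 42% in these data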;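 note: stock transfer was 100 nL into about 11 µL; a reference agonist was the positive control; negative values mostly stem from fluorescent compounds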
FGF22 binding: shifts melting point of recombinant human FGF22; Q9HCT0; recombinant FGF22 thermal shift, SYPRO orange fluorescence; percent of sucrose octasulfate shift, DMSO zero; calls only at 9.99 µM; hit rate 1.5% among 340,000; AID 651658;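 active = melting point raised past a set limit in the mean and every replicate; inconclusive = no clear call; three in four hits are not shown here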
Target sequence (Q9HCT0 whole entry, looked up): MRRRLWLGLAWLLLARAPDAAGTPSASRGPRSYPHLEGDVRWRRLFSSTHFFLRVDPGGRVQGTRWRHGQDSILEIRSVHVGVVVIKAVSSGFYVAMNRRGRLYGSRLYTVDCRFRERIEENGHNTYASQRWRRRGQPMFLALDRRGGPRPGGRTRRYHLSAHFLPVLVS
UCH37 inh: inhibitors of human deubiquitinating enzyme UCH37 | Q9Y5K5 | purified proteasome/UCH37, Ub-AMC cleavage fluorescence | inhibition, % (test concentration not listed) | hit rate 0.33% among 330,000 | AID 588478;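 active = mean of two replicates above 20%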;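 note: 0% = compound-free wells with enzyme and 100% = wells lacking proteasome; stock transfer was 100 nL into about 20 µL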
Target sequence (Q9Y5K5 whole entry, looked up): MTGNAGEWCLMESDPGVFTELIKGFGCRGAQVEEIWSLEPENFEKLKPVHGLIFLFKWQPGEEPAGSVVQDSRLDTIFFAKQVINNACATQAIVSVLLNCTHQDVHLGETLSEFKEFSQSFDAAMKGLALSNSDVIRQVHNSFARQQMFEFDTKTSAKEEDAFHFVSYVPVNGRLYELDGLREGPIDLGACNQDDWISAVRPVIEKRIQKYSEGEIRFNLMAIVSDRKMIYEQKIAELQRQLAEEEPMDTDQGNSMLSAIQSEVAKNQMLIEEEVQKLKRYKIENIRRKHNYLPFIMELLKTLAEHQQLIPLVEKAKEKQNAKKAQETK
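Material: human UCH37 enzyme supplied as purified proteasome complex. Measure: % inhibition of Ub-AMC cleavage fluorescence. Medium: pH 7.4 Tris-HCl (50 mM) with ovalbumin, ATP-MgCl2, DTT. Times: 30 min preincubation with enzyme, 25 min cleavage at room temperature. Detection: AMC fluorescence intensity at 355/460 nm.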
LANA-H2B inh: blocks KSHV LANA binding to histone H2A/H2B. AID 2629. hit rate 0.6% among 320,000. inhibition, % (no concentration beside the values). cell-free LANA-H2A/H2B peptide, fluorescence polarization; in the data active = inhibition mostly above about 10%, no sharp cut-off; inactive = mostly below about 6.7%;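 note: stock transfer was 7.5 nL into about 10 µL; 0% = median of vehicle wells and 100% = median of positive control wells; one replicate is shown; the record names a cut of 25% in any replicate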
The depositor's hits bear a star; i = inactive; ? = inconclusive; / = not tested or not shown; + = active, no number. This is a subset. The share of hits here may be higher or lower than overall.

SMILES	Ecoli growth	ALR inh	HNF4A DNA FP	B2AR ag	FGF22 binding	UCH37 inh	LANA-H2B inh
CC(=O)Nc1cccc(NC(=O)CSc2ccc(-c3cccnc3)nn2)c1	0.65	3	0.3	3	i	0.4	3.9
CCCCCOC(=O)c1ccc(N2C(=O)C3C4C=CC(C4)C3C2=O)cc1 (stereo unspecified)	0.69	-19	0.1	-8	/	0.7	-0.7
CC(=O)N(c1ccccc1)c1c(F)c(F)c(F)c(F)c1F	0.69	-2	0.0	31	/	0.6	6.3
CCn1c2ccccc2c2cc(/C=N/NC(=O)c3ccccc3)ccc21	/	13	-1.2	17	/	/	1.6
CC(C)c1ccc(S(=O)(=O)N2CCC(C(=O)N3CCN(c4cccc(Cl)c4)CC3)CC2)cc1	0.74	/	4.2	-8	i	5.2	/
O=C(CCn1cccc1)NCc1ccc(Cl)cc1	0.72	10	-9.3	-5	/	-4.0	1.7
O=C(O)c1cccc(CN2C(=O)S/C(=C/c3cccc([N+](=O)[O-])c3)C2=O)c1	0.74	32	2.5	19	i	0.0	0.3
Cc1ccc(N(C(=O)c2csnn2)C(C(=O)NC2CCCC2)c2ccccn2)c(C)c1 (stereo unspecified)	0.7	-3	1.5	0	+	2.9	1.9
CC1CCC(=C(C#N)c2nc(-c3cc4ccccc4oc3=O)cs2)CC1 (stereo unspecified)	0.74	-3	-0.5	0	/	-63	1.2
CCCCCCCCCCOC(=O)Cn1c(COc2ccccc2C)[n+](C)c2ccccc21	/	-21	10	68*	/	/	10
CCN1CCN(C(=S)c2ccc(OCC(=O)Nc3ccc(OC)cc3)cc2)CC1	0.7	-6	-0.6	1	/	0.9	-3.5
COc1cc(CCC(=O)NNC(=O)c2ccc(C)cc2)cc(OC)c1OC	0.69	3	5.4	3	i	0.3	-0.3
O=[N+]([O-])c1ccccc1SN(Cc1ccccc1)c1ccccn1	0.68	-56	-0.7	29	i	1.8	0.6
COc1ccccc1-n1ccnc(SCC(=O)NC2CCCCC2)c1=O	0.68	/	4.8	6	i	-2.6	/
COc1ccc(CN(C(=O)c2ccco2)c2ccccc2)cc1	0.76	3	-1.4	-7	/	1.4	0.1
Cc1nc(-c2ccc([N+](=O)[O-])cc2)sc1C(=O)O	0.65	-4	4.5	5	i	14	2.8
C1CNC(C23CC4CC(CC(C4)C2)C3)=N1	0.7	22	-2.3	2	i	1.8	0.0
CCOC(=O)/C(=N/Nc1ccccc1)Sc1nnc(CCc2ccccc2)n1-c1ccccc1	/	12	0.8	0	i	/	-1.2
O/N=C/c1cccn1-c1ccc(O)cc1	/	99*	-2.1	9	/	/	-4.1
Cc1cc2ncn(/N=C/c3cccnc3)c2cc1C	/	2	-1.2	-8	/	/	-3.0
COc1ccc(C(=O)COC(=O)C2CCC(=O)N2)cc1 (stereo unspecified)	0.7	/	-2.7	9	i	0.6	-4.7
COc1cc(OC)c2c(C)cc(=O)oc2c1C(CCN1CCN(c2ccccc2)CC1)c1ccc2c(c1)OCO2 (stereo unspecified)	0.68	/	4.9	7	i	0.7	0.2
CCN(CC(=O)Nc1c(F)cccc1F)C(=O)CCCc1c[nH]c2ccccc12	0.68	27	-0.9	2	i	2.0	1.1
O=C(c1cc2ccccc2o1)N1CCOCC1	0.58	1	4.6	-5	i	1.4	0.3
CCN(C(=O)COC(=O)c1ccccc1NCc1ccco1)c1c(N)n(Cc2ccccc2)c(=O)[nH]c1=O	0.69	/	1.2	-10	i	-391	/

Exported with two lines to a compound: 4 of the compounds above.
Order of results: Ecoli growth	ALR inh	HNF4A DNA FP	B2AR ag	FGF22 binding	UCH37 inh	LANA-H2B inh
COc1cc(OC)c2c(C)cc(=O)oc2c1C(CCN1CCN(c2ccccc2)CC1)c1ccc2c(c1)OCO2 (stereo unspecified)
  0.68	/	4.9	7	i	0.7	0.2
CCN(CC(=O)Nc1c(F)cccc1F)C(=O)CCCc1c[nH]c2ccccc12
  0.68	27	-0.9	2	i	2.0	1.1
O=C(c1cc2ccccc2o1)N1CCOCC1
  0.58	1	4.6	-5	i	1.4	0.3
CCN(C(=O)COC(=O)c1ccccc1NCc1ccco1)c1c(N)n(Cc2ccccc2)c(=O)[nH]c1=O
  0.69	/	1.2	-10	i	-391	/

Additional records follow:
SMILES	Ecoli growth	ALR inh	HNF4A DNA FP	B2AR ag	FGF22 binding	UCH37 inh	LANA-H2B inh
Cc1nnc2sc(-c3ccc(NC(=O)CSc4ccc(Cl)cc4)cc3)nn12	0.67	-6	2.2	-1	/	-7.9	-0.8
C[C@@H]1CC[C@@]2(O[C@@H](CCO)C[C@H](O)[C@H]2O)O1	/	-2	3.7	1	/	0.8	0.5
COc1ccc(CNC(=O)C(C)OC(=O)CCN2C(=O)C3CC=CCC3C2=O)cc1 (stereo unspecified)	0.64	/	0.2	2	/	0.4	2.9
COc1ccc(C(CNC(=O)C(CCSC)NC(=O)c2ccccc2Cl)N2CCCCC2)cc1 (stereo unspecified)	0.7	-6	7.0	9	i	3.2	2.6
CC(=O)NC(CCS(C)(=O)=O)C(=O)Nc1cc(C)on1 (stereo unspecified)	0.71	-2	-3.7	8	i	3.0	-1.1
COCCCNc1ccnc2c(Cl)cccc12	0.69	-6	-0.9	5	/	0.5	7.0
COc1ccc(Oc2nc(C)cc(C)c2S(=O)(=O)c2ccc(C)cc2)cc1	0.74	-13	-6.5	-3	/	-0.1	-1.3
C=CCC1c2cccc(C(=O)O)c2C(=O)N1c1ccc(F)cc1 (stereo unspecified)	0.71	-5	4.9	0	/	-1.0	2.0
CN(C)S(=O)(=O)c1ccc(Cl)c(C(=O)Nc2ccc(S(=O)(=O)N3CCOCC3)cc2)c1	0.7	/	8.3	-6	i	2.2	0.4
CC(C)Cn1c(N)c(C(=O)COC(=O)c2ccccc2C(=O)c2ccccc2)c(=O)n(C)c1=O	0.69	0	0.3	10	i	0.1	1.0
O=C(Nc1ccc(O)c2c(=O)cc(-c3cccc(Cl)c3)oc12)c1cccc(Cl)c1	0.64	-2	0.3	-20	i	4.2	-3.6
CN(C)CCC(=O)c1ccc2c(c1)OCO2	0.69	12	-1.1	4	/	-3.2	-0.1
Cc1ccc(C)c(S(=O)(=O)NCCOC(=O)Nc2sc(=S)n(C)c2C)c1	0.68	53	-1.9	-7	i	5.6	-1.7
O=C(COC(=O)c1ncc(Cl)c(Cl)c1Cl)NNC(=O)c1ccccc1	/	9	-0.2	5	i	/	2.0
COc1ccc(S(=O)(=O)N2CCc3ccccc32)cc1C(=O)NCC(c1ccco1)N1CCCC1 (stereo unspecified)	0.62	1	-0.4	-4	i	0.7	3.0
CCCC(=O)Nc1ccc2nc(SCC(=O)N3CCCC3)sc2c1	0.7	?	-1.4	-4	i	2.8	1.4
Cc1ccccc1CC1SC(N=C(N)N)=NC1=O (stereo unspecified)	0.65	-7	1.2	-4	i	1.5	6.2
CCc1nnc(NC(=O)Nc2ccc(Cl)cc2)s1	0.64	1	4.4	0	i	0.7	6.9
Cc1ccc(C2=NN(S(=O)(=O)c3ccccc3)C(c3ccco3)C2)cc1 (stereo unspecified)	0.69	/	4.0	0	i	1.1	-4.0
CN(C)CC(CCC(CN(C)C)C(=O)c1ccccc1)C(=O)c1ccccc1 (stereo unspecified)	0.69	/	4.6	41	/	6.6	/
O=C(Nc1ccc(S(=O)(=O)N2CCOCC2)cc1)c1ccc(Br)o1	0.7	/	4.0	6	/	4.5	-6.8
COc1ccc(CC(=O)NCC(=O)N/N=C/c2c[nH]c3ccccc23)cc1	/	7	3.9	2	i	/	0.2
NCCCn1c(C(=O)c2cc(Cl)c(N)c(Cl)c2)c2ccc(C(F)(F)F)cc2[n+]1[O-]	0.61	29	1.3	-4	i	6.1	2.2
Cc1cccc(N(CC(=O)NC2CCCC2)C(=O)CS(=O)CC(=O)Nc2ccc3c(c2)OCO3)c1 (stereo unspecified)	0.69	/	1.3	-12	/	3.7	/
COc1ccc(S(=O)(=O)N2CCOCC2)cc1C(=O)Nc1ccon1	0.71	/	4.0	1	/	-0.5	-8.2

An excerpt from above in order of their number in ALR inh, largest number first:
SMILES	ALR inh
O/N=C/c1cccn1-c1ccc(O)cc1	99*
CCN(CC(=O)Nc1c(F)cccc1F)C(=O)CCCc1c[nH]c2ccccc12	27
Cc1cc2ncn(/N=C/c3cccnc3)c2cc1C	2
O=C(c1cc2ccccc2o1)N1CCOCC1	1
Cc1ccc(N(C(=O)c2csnn2)C(C(=O)NC2CCCC2)c2ccccn2)c(C)c1 (stereo unspecified)	-3
CCN1CCN(C(=S)c2ccc(OCC(=O)Nc3ccc(OC)cc3)cc2)CC1	-6
COc1ccc(Oc2nc(C)cc(C)c2S(=O)(=O)c2ccc(C)cc2)cc1	-13

Next results
SMILES	Ecoli growth	ALR inh	HNF4A DNA FP	B2AR ag	FGF22 binding	UCH37 inh	LANA-H2B inh
Cc1cccc(CC(=O)NCC2CCCCC2)c1	0.67	0	0.8	-1	/	-0.3	-1.8
Cc1cc(C)c(C#N)c(Nc2cccc(C)c2C)n1	0.68	3	0.7	-10	i	-10	1.3
Cc1ccccc1CN1C[C@@H]2C[C@@H](c3cn[nH]c3-c3ccc(F)cc3)N3CCC[C@@]23C1=O	/	-1	2.3	16	i	2.1	-3.2
CCCCn1c(SCC(=O)NCc2ccco2)nnc1-c1ccoc1C	0.76	4	-12	2	/	-0.6	2.2
O=S(=O)(c1ccc(-c2cnc(C3CC3)o2)cc1)N1CCN(c2ccccc2)CC1	0.72	-2	-1.8	0	i	6.0	3.7
CCCCCCP(=O)(O)c1ccccc1	0.73	4	1.9	3	/	0.8	1.8
C/C(=N\NC(=O)c1ccccc1)c1ccc(N2CCOCC2)cc1	/	9	1.3	1	/	/	4.6
Cc1cc(C)c2nc(SCC(=O)NCCN3C(=O)CSC3=O)cc(C)c2c1	0.67	54	-0.3	-4	i	3.0	-2.2
Nc1ncc(Br)cc1S(=O)(=O)NCCC(=O)N1CCN(c2ccccn2)CC1	0.7	2	1.6	-19	i	-1.7	4.7
CN(C)CCN1C(=O)C2C3C=CC(C3)C2C1=O (stereo unspecified)	0.71	-10	0.8	-12	+	2.8	3.4
CC(=O)Nc1ccc(S(=O)(=O)N2CCN(c3cc(C)ccc3C)CC2)cc1	0.7	7	2.6	7	i	2.3	4.5
CC1CCCCN1C(=O)CCS(=O)(=O)c1cc2c(cc1Cl)NC(=O)CO2 (stereo unspecified)	0.8	-3	2.2	5	i	0.8	-2.7
Cc1nn2c(-c3ccccc3)ccnc2c1Br	0.67	-2	-1.0	6	i	3.6	6.4
O=C(CN1C(=O)C2C3CCC(C3)C2C1=O)Oc1ccc2ccccc2c1 (stereo unspecified)	0.67	-1	-0.3	5	i	1.9	1.8
C=CCN(CC=C)C(=S)Nc1cc(Cl)ccc1OC	0.67	/	-4.9	-2	i	4.1	9.2
O=[N+]([O-])c1ccc(-c2cccnc2)cc1	0.53*	/	3.8	-1	i	4.6	/
O=C1NC[C@@H](Cc2ccc(O)cc2)N(CCc2cccc(F)c2)C1=O	/	/	1.8	0	i	2.4	5.3
OC(COc1ccc2ccccc2c1Br)Cn1ccnc1 (stereo unspecified)	0.59	-36	-1.8	-1	/	1.9	2.9
COc1ccc(C(NC(=O)N2CC(C)OC(C)C2)C(Cl)(Cl)Cl)cc1F (stereo unspecified)	0.65	/	0.2	1	/	1.6	/
CC(C)n1c(SCC(=O)NCc2ccco2)nc2c1c(=O)n(C)c(=O)n2C	0.64	0	-2.2	-4	/	1.1	-1.2
COC(=O)C(=N/Nc1ccccc1C(=O)OC)/C(C)=N/O	/	1	5.0	5	i	/	-1.1
O=C(Nc1nc(-c2ccccc2)cs1)c1cccc([N+](=O)[O-])c1	0.62	-1	0.2	18	/	3.0	1.2
Cc1cc(OC(=O)c2ccc3ccccc3c2)c([N+](=O)[O-])c(=O)[nH]1	/	0	-0.6	7	i	/	-1.5
CCOc1ccc(/C(O)=C2/C(=O)C(=O)N(CCOCCO)C2c2cccnc2)cc1 (stereo unspecified)	/	-7	-3.0	-1	/	3.8	-0.1
O=C(CCN1C(=O)c2ccccc2C1=O)Nc1cccnc1	0.62	-16	2.2	6	/	-0.4	-0.2
